Tgondii IFNg: T. gondii growth inhibition with IFN-gamma, primary screen, cell-based; Toxoplasma gondii growth in IFN-gamma-treated host cells; active compounds read low; reference of the scale not given here; activity change, negative = inhibition, %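 (about 20 µM by stock and volumes)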; 3.8% of 69,000 active; AID 1259416, 2018;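 active = below -70%; inconclusive = fit judged invalid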;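 note: host cells are HeLa cells infected with Toxoplasma gondii; parasite growth read as luciferase light; one replicate is shown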
The depositor's hits bear a star; ? = inconclusive; & = joins results of further samples. Not all compounds are listed, so the mix of outcomes need not match the whole.

structure	Tgondii IFNg
O=C(C1CCCCC1)N1[C@H](CO)[C@@H]2c3ccccc3N(S(=O)(=O)c3ccccc3)C[C@@H]21	-48
COc1cc(-c2noc(-c3c(O)c4ccccc4[nH]c3=O)n2)ccc1OC(C)C	-28
COC(=O)[C@@H]1C[C@@H](N(C)C)CN1C/C=C/c1ccco1	-32
CO[C@@H]1CN(C)C(=O)c2cc(NC(=O)NC(C)C)ccc2OC[C@H](C)N(Cc2ccccc2)C[C@H]1C	111
CCS(=O)(=O)N1CC2(CN(Cc3cccc(Cl)c3)[C@@H](CO)c3c2c2ccc(OC)cc2n3C)C1	-41
CCn1cc(CN2CCN(Cc3cccc(F)c3)CC2)cn1	-8
O=C(NCCN1CCCC1)[C@H]1[C@H](CO)[C@H]2Cn3c(cccc3=O)[C@H]2N1Cc1ccccn1	-25
COc1ccc(N(C)CCC(=O)N2CCC(c3ccc(-c4cnc(N)nc4)cn3)CC2)cc1	67
O=C(c1ccc(NCc2ccoc2)nc1)N1CCC(N2CCOCC2)CC1	-49
Cc1ccc(S(=O)(=O)NCc2cc(=O)[nH]c(-c3ccccn3)n2)cc1C	-7
Cc1ccc(F)cc1NC(=O)C(=S)NCc1ccccc1	-25
COC(=O)c1ccc(NC(=O)C(=O)NCCc2csc(-c3ccc(C(F)(F)F)cc3)n2)cc1	119
CCOc1ccc(-c2nc(CN(c3cccc(OC)c3)S(=O)(=O)c3ccc(C)cc3)c(C)o2)cc1	-37
Fc1cccc(-c2ccc(C3[C@@H]4CN(Cc5cncnc5)C[C@H]3N4)cc2)c1 (stereo partly drawn)	-2&-12
COc1ccc(S(=O)(=O)N(C)C[C@H]2Oc3ccc(N(C)C)cc3CC(=O)N([C@@H](C)CO)C[C@@H]2C)cc1	1
COc1ccc(CCNCC(O)COc2cccc(C)c2)cc1OC (stereo not drawn)	-4
CCN(CC)C(=O)C1CCCN(c2nccc(CCC(F)(F)F)n2)C1 (stereo not drawn)	-12
COc1ccc(-c2nc(C)c(CCNC(=O)C(=O)Nc3ccccc3Cl)s2)cc1OC	-53
CC(C)(C)OC(=O)NCCC(=O)Oc1ccc2ccc(=O)oc2c1	-2
C[C@@H]1CN([C@@H](C)CO)C(=O)c2cccc(NC(=O)c3ccncc3)c2O[C@H]1CN(C)Cc1ccc2c(c1)OCO2	-37
COc1ccc(C(=O)NCCc2sc(-c3ccc(Cl)cc3)nc2C)c(OC)c1	-70
C=C(C)c1cccc(C(C)(C)NC(=O)Nc2ccc(C(N)=O)cc2)c1	-14
Cc1ccc(CN2CCc3ncnc(NC4CC4)c3CC2)o1	-59
CC(=O)NC(c1ccccn1)C1CCC(CNC(=O)CC(C)C)CC1 (stereo not drawn)	-22
CN(CCC1CCOCC1)C(=O)c1ccco1	4
COCC(=O)N1[C@H](CNC(=O)c2ccccn2)[C@H](c2ccccc2)[C@@H]1CO	-12
COc1ccc(Cl)cc1NC(=O)CN1CCN(S(=O)(=O)N2CCC(C)CC2)CC1	-43
C[C@@H]1CN([C@@H](C)CO)S(=O)(=O)c2ccc(C#CC3(O)CCCC3)cc2O[C@@H]1CN(C)C(=O)Nc1cccc(F)c1	-104*
Cc1cc(C)c(C#N)c(N2CCOCC2)n1	79
COc1ccc(C2c3nc[nH]c3CCN2C(=O)c2cc3c(C)cc(C)cc3[nH]2)cc1 (stereo not drawn)	33

Some of the entries so far, as labelled records.
compound: C=C(C)c1cccc(C(C)(C)NC(=O)Nc2ccc(C(N)=O)cc2)c1
- Tgondii IFNg: -14

compound: Cc1ccc(CN2CCc3ncnc(NC4CC4)c3CC2)o1
- Tgondii IFNg: -59

compound: CC(=O)NC(c1ccccn1)C1CCC(CNC(=O)CC(C)C)CC1 (stereo not drawn)
- Tgondii IFNg: -22

compound: CN(CCC1CCOCC1)C(=O)c1ccco1
- Tgondii IFNg: 4

Two records drawn at random from those above, as already listed:
structure	Tgondii IFNg
COc1cc(-c2noc(-c3c(O)c4ccccc4[nH]c3=O)n2)ccc1OC(C)C	-28
O=C(C1CCCCC1)N1[C@H](CO)[C@@H]2c3ccccc3N(S(=O)(=O)c3ccccc3)C[C@@H]21	-48

The main list resumes with the 2 entries that preceded the break.
structure	Tgondii IFNg
Cc1cc(C)c(C#N)c(N2CCOCC2)n1	79
COc1ccc(C2c3nc[nH]c3CCN2C(=O)c2cc3c(C)cc(C)cc3[nH]2)cc1 (stereo not drawn)	33
O=C(COC(=O)CN1C(=O)C(=O)c2ccccc21)Nc1nc2c(s1)CCCC2	-10
CC(C)(O)C#Cc1cccc(C(=O)NC2CCCCNC2=O)c1 (stereo not drawn)	4
CNC(=O)c1ccc(-c2nc(CN3CCN(C(=O)Nc4ccc(F)cc4F)CC3)c(C)o2)cc1	284
CC(C)N(C[C@@H]1[C@H](c2ccccc2)[C@@H](CO)N1S(C)(=O)=O)C(=O)CN(C)C	-20
Cc1ccc(C(=O)NCc2sccc2C)cc1N1CCNC1=O	0
Cc1nc(NCCC2CCOC2)cc(C2CCNCC2)n1 (stereo not drawn)	-2
CCCCC(=O)Nc1ccc(C(=O)NC2CCCN(C(=O)C3CC3)C2)cc1 (stereo not drawn)	-4
Cc1nonc1OCCn1nnc(N)n1	-6
c1ccc(CCN2CCC3(CC2)CC(N2CCCC2)CO3)cc1 (stereo not drawn)	-53
CCc1ncc(C(=O)N(C)Cc2ccccc2C(F)(F)F)cn1	-2
CCC(=O)N1CC(=O)N2[C@H](C1)[C@H](c1ccc(C#CCC(C)C)cc1)[C@@H]2CO	-49
CCn1c(-c2nccn2-c2ccc3n[nH]nc3c2)nc2ccccc21	-1
CC(Cn1cccn1)C(=O)N1CCN(C)C2(CCN(C)CC2)C1 (stereo not drawn)	-13
CCC(=O)Nc1nc(-c2ccco2)c(-c2ccncc2)s1	7
Clc1ccc(-c2nccn2CCC2CCCCO2)cc1 (stereo not drawn)	-4
COc1ccc(C#Cc2ccc3c(c2)[C@H]2[C@H](CCN2S(=O)(=O)c2ccccc2C)[C@@H](CO)N3C)cc1	-10
Cc1ncsc1C(=O)N1CC[C@@H](c2ccc3ccccc3c2)[C@H](O)C1	-6
COC(=O)[C@H](CC(C)C)NC(=O)[C@@H](N)CC(C)C	-2
O=C(O)c1cc2n(n1)CCN(C1CCN(Cc3ccccc3)CC1)C2	1
O=C(C[C@@H]1C=C[C@H](NC(=O)Nc2ccccc2F)[C@H](CO)O1)NCc1ccc(-c2ccccc2)cc1	-48
CCN(C/C=C/c1ccccc1)C(=O)c1ccc(C#CC(C)(C)O)cc1	69
Cc1ccc2c(c1)c(CNS(=O)(=O)NCc1ccccc1)nn2C	4
COc1ccc2[nH]c(=O)c(CNc3ccc(-c4nc5ccc(C)cc5[nH]4)cc3)cc2c1	48
CCS(=O)(=O)NCC[C@H]1CC[C@H](NS(=O)(=O)c2ccccc2C)[C@H](CO)O1	31
CCN1c2cc(C)ccc2-n2cccc2C12CCN(C(=O)Nc1ccccc1C(F)(F)F)CC2	108
NC(=O)c1cccnc1N1CCN(c2nccc(CCC(F)(F)F)n2)CC1	-8
COc1ccc(NC(=O)N2CCc3nc(-c4ccccc4)sc3C2)cc1OC	32
CCCNC(=O)N1CC2(CCN(C(=O)Nc3cccc(F)c3)CC2)c2c(n(C)c3cc(OC)ccc23)[C@@H]1CO	39
FC(F)(F)c1cc(N/N=C2/CCSc3sccc32)cc(C(F)(F)F)c1	-103*
COc1cccc(NC(=O)c2cc(-c3ccn(C)n3)n3ccccc23)c1	-63
Cc1cc(C)n(-c2cccc(-c3ncccc3NC(=O)C(C)C)c2)n1	6
COc1ccccc1CNC(=O)CC1N=C2c3ccccc3N=C(SCc3ccc(F)cc3)N2C1=O (stereo not drawn)	11
CN(C)CCNC(=O)c1cc2n(n1)CCN(C(=O)CC1CNCCO1)C2 (stereo not drawn)	7
CC(C)NC(=O)[C@@H]1CCC[C@@]12CCN(Cc1cnn(C)c1)C2	2
Cc1cnc2c(C(=O)N3CCC(CC(=O)N(C)C)CC3)cnn2c1	-20
Cc1ncnc2c1CCN(CC1CCC1)CC2	-4
Cc1cccc(CN2CC[C@H]3[C@H](CC2)S(=O)(=O)CCN3C(=O)c2ccccc2)c1	-67
Cc1sc(NC(=O)C(C)C)c(C(=O)N2CCn3cncc3C2)c1C	-5
Cc1occc1C(=O)N1CCC2OCCCC2(COc2cccnc2)C1 (stereo not drawn)	-4
Cc1ccc(S(=O)(=O)N2CCC3(CC2)NCCN=C3NCc2ccc3c(c2)OCO3)cc1C	-3
Cc1[nH]c2ccccc2c1Sc1ccc(Cl)cc1	-56
CC1Cc2ccccc2N1C(=O)Cn1nc(-c2ccncc2)oc1=O (stereo not drawn)	-12
Cc1ccc2nc(SCC(=O)N3N=CCC3c3ccccc3)nc(C)c2c1 (stereo not drawn)	-20
CC(C)N(C)Cc1cnc2n1CCN(C(=O)NC1CCCC1)C2C (stereo not drawn)	3
O=C(CSCc1c(Cl)cccc1Cl)Nc1cccnc1	2
O=S(=O)(c1ccccc1)N1CC2CN(Cc3cccc(Cl)c3)C2C1 (stereo not drawn)	6
CCOc1cccc(C2c3[nH]c4ccccc4c3CCN2C(=O)c2cccc(Cl)c2)c1 (stereo not drawn)	-122*
O=S(=O)(c1ccccc1F)N1CCCn2nnc(CN3CCCCC3)c2C1	1
CCn1c(=O)c(-c2nc(-c3ccccc3OC)no2)c(O)c2ccccc21	57
CC(NC(=O)CN1CCCCCCC1)c1nncn1C (stereo not drawn)	-3
CCC(=O)Nc1ccc(-c2nnc(C(F)(F)F)o2)cc1C	22
Cc1nc(CC(=O)N2CCC(c3ccccc3C(=O)O)C2)cs1 (stereo not drawn)	31
C[C@@H]1CCCCO[C@H](CN(C)C(=O)NC2CCCCC2)[C@H](C)CN([C@@H](C)CO)C(=O)c2cc(N(C)C)ccc2O1	369
Cc1c(Cn2ccnc2-c2nc(C(C)C)cs2)cnn1C	-8
N[C@H]1CCN(O)C1=O	3
COCC1CN(CCc2ccccc2)CCN(S(=O)(=O)N(C)C)C1 (stereo not drawn)	34
CN1CCN(C(=O)C2CCC(=O)NC(=O)N2)CC(Cc2ccc(-c3ccccc3)cc2)C1=O (stereo not drawn)	-24
CN(C)CCN(Cc1cccnc1)Cc1cncn1Cc1ccccc1	14
Cc1ccc(OCc2cc(C(N)=O)oc2C)cc1	-2
CC(=O)c1sc(-c2ccccc2)cc1N	45

Other entries follow.
structure	Tgondii IFNg
COCCN1C(=O)CC2C1CCN2S(=O)(=O)c1cn(C)cn1 (stereo not drawn)	83
CCCN1C[C@H](C)[C@@H](OC)CN(C)C(=O)c2ccc(NS(=O)(=O)c3cn(C)cn3)cc2OC[C@H]1C	-52
CC(C)c1ccc2c(c1)CCC1C(C)(C(N)=O)CCCC21C (stereo not drawn)	-72*
Cc1ccc(S(=O)(=O)N2CCC3(CC(C(=O)NCC(C)C)=NO3)C2)cc1 (stereo not drawn)	0
COc1cccc(-c2nccn2CC2COc3ccccc3O2)c1OC (stereo not drawn)	60
CCC1=N[C@]2(CC[C@@H]3CN(c4ncccn4)C[C@H]32)C(=O)N1CC1CC1	-18
O=C(CCn1cnnn1)NCc1cnn2ccccc12	1
Cn1ncc2c1C(COCC1CC1)N(C(=O)c1ccc(F)cc1)CC2 (stereo not drawn)	-10
COc1cccc(N(C)C(=S)Oc2ccc3c(c2)CCCC3)n1	-46
CC(=O)N1CCOC(CNC(=O)CCc2cccnc2)C1 (stereo not drawn)	10
CCCN1C(=O)CCc2cc(NC(=O)c3ccc(OC(F)(F)F)cc3)ccc21	?
Nc1nnc(Sc2nc3c(Cl)cc(Cl)cc3s2)s1	-85*
CCC(=O)N1[C@@H](CO)[C@H](c2ccccc2)[C@@H]1CN(C)C(=O)CN1CCOCC1	22
COc1cc(CN2CCCC2c2nnc(-c3nccc4ccccc34)o2)cc(OC)c1OC (stereo not drawn)	75
COc1ccc(OC)c(NC(=O)c2nc(-c3ccc(C)cc3)n3c2CCCCC3)c1	?
O=C(O)CN1CCC2(CC(=O)N(c3ccsc3)C2)C1 (stereo not drawn)	-2
Cc1ccnc(NCCNc2nc(C(C)(C)C)nc3c2cnn3C)c1	-3
Cc1ccccc1CCC1CCCN(Cc2nnc(-c3ccco3)o2)C1 (stereo not drawn)	-12
O=C(Nc1nc2c(s1)Cc1ccccc1-2)c1ccc(F)c(Cl)c1	116
Cc1ccc(NC(=O)N2CCC3(CC2)Nc2cc(F)ccc2-n2cccc23)cc1C	290
CS(=O)(=O)N1CC[C@@H]2[C@H]1CCN2c1ccccn1	24
CC(=O)N1CCN(c2ncc(-c3cc(C)no3)c(-c3ccc(C)nc3)n2)CC1	-8
COc1cccc(CC(=O)NC(Cc2ccccc2)c2nn(CC(C)C)c3ncccc23)c1 (stereo not drawn)	-40
Cc1nc(-c2cnn(C)c2)nc2c1CN(S(C)(=O)=O)CC2	-21
O=c1[nH]c2ccc(NCc3ccc(-c4ccccc4F)o3)cc2[nH]1	71
C=CCOCC12CCCOC1CCN(S(=O)(=O)c1cccnc1)C2 (stereo not drawn)	40
O=C(NC(=S)Nc1nc(-c2ccccc2)cs1)c1ccco1	18
CCCC(C)c1nnc(NC(=O)Cc2ccc3c(c2)NC(=O)CO3)s1 (stereo not drawn)	-4
c1ccc(C2c3[nH]c4ccccc4c3CCN2Cc2ccc3c(c2)OCCO3)nc1 (stereo not drawn)	37
COCCN1CCN(C(=O)C2CC=CC2)Cc2ccc(C)nc21	-5
Cc1cc(N2CC[C@@H](c3ccc4c(c3)OCO4)[C@H](O)C2)nc2cc(F)ccc12	-20

Source: PubChem BioAssay (Broad Institute)
